# Sa ugtP lethal: compounds lethal to S. aureus RN4220 ugtP deletion mutant; OD600 growth, 16 h; some inactives read as strong as hits; growth inhibition, % (no concentration beside the values); 330,000 tested, 0.54% active;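 active = z-score under -3 and OD600 up to 0.15 on both plates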;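 note: plate controls were untreated wells for no effect and antibiotic for full effect; wells of about 80 µL received 100 nL stock; the first replicate is given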
# BJeLR lethal: kills HRASV12-expressing BJeLR cells; BJeLR (HRASV12) viability, CellTiter-Glo ATP luminescence, 48 h; reference of the scale not given here; 300,000 tested, 0.17% active; AID 1554; inhibition, % (test concentration not listed);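 active = replicate mean above 50%; inconclusive = above 50% but judged a plate artefact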;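 note: 50 nL library stock added to about 25 µL; numbers are from one replicate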
# PrP 5UTR inh: inhibition of PrP 5' UTR reporter expression. cell-based PrP 5' UTR mRNA reporter, plate reader. 340,000 tested, 0.35% active. inhibition, % (concentration not given with the values). AID 488862;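 active = every replicate at 50% or more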;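 note: 0 = median of the neutral control wells; tested in H4 reporter cells; numbers are from one replicate; inactives centre near -14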
# RN4220 kill: kills Staphylococcus aureus RN4220; S. aureus RN4220 growth, OD600, 16 h; inhibition, % (test concentration not listed); 330,000 tested, 0.33% active; AID 1259311;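 active = z-score of -3 or lower and OD600 up to 0.18 on both plates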;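 note: plate controls were untreated cells for no effect and reference antibiotic for full effect; stock transfer was 100 nL into about 80 µL; one replicate is shown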
# Mtb hypoxia rep: inhibitors of hypoxia-regulated fluorescent reporter in Mycobacterium tuberculosis | M. tuberculosis hypoxia-regulated fluorescent reporter, fluorescence | fluorescence inhibition, % (concentration not given with the values) | 300,000 tested, 0.1% active | AID 1159583;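 active = 35 to 45% if threefold the growth effect, above 45% if 1.5-fold the growth effect; inactive = the rest, general growth blockers included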;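 note: wells of about 50 µL received 100 nL stock; 0% = vehicle wells and 100% = reference inhibitor wells; whole bacteria with a GFP reporter of the hypoxia response; strong numbers were not always called active; many hits fall short of the cut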
# Bead autofluor: flagged as autofluorescent in microsphere protease counterscreen | compound autofluorescence counterscreen, microsphere flow cytometry; active compounds read high | fluorescence intensity (test concentration not listed) | 360,000 tested, 3.1% active | AID 624483;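 active = at least 3 SD above the mean of all compounds, about 16000 in these data; inconclusive = too few beads counted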;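 note: 100 nL of 1 mM stock went into each well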
# Mtb hypoxia rep growth: recorded beside Mtb hypoxia rep, whose call it bears; growth inhibition, %; measured here: M. tuberculosis growth (absorbance);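 0% = vehicle and 100% = reference antibiotic; read after six days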
# * hit, by the source's call; ? = inconclusive; . = not tested or not shown; & = joins results of further samples.
# Sequence of screens – Sa ugtP lethal	BJeLR lethal	PrP 5UTR inh	RN4220 kill	Mtb hypoxia rep	Mtb hypoxia rep growth	Bead autofluor
- Cc1ccccc1NC(=O)CC1c2ccccc2CC(C)(C)N1C (configuration not stated)
    2	5	-43	5.3	3	5	4244
- CCCNC(=O)COC(=O)c1[nH]c(C)c(C(=O)OCC)c1C
    -4	-5	-20	-0.9	2	13	5695
- O=C(CCN1C(=O)/C(=C/c2ccccc2F)SC1=S)N[C@@H](CO)Cc1ccccc1
    7	2	3	1.5	9	2	4591
- COc1ccc(NC(=S)NCCc2c(C)[nH]c3ccc(OC)cc23)cc1
    1	0	-37	4.3	6	-1	2105
- COCCNC(=O)c1cccc(OC2CCN(Cc3ccc(Cl)c(F)c3)CC2)c1
    8	-3	-13	5.3	11	2	4754
- COc1ccc(CNC(=O)c2ccc(N3CCCC3=O)cc2)cc1
    13	-10	-22	5.6	6	8	7836
- CC(C)COC(=O)c1cc(-c2ccc(/C=N/n3cnnc3)o2)ccc1Cl
    .	3	-34	.	.	.	22229*
- NC(=O)C(CC(=O)O)NC(=O)C1CCCNc2c(I)cc([N+](=O)[O-])cc2C(=O)NC(CO)C(=O)NC(Cc2ccc(O)cc2)C(=O)N1 (configuration not stated)
    2	.	.	5.1	11	10	.
- CCOC(=O)c1cccc(NS(=O)(=O)c2c(C(=O)N3CCCCCC3)c(C)n(C)c2C)c1
    -3	-4	-18	-0.5	16	6	6033
- CCn1cc(C(=O)NCCCN2CCC(C)CC2)c(=O)c2cc(S(=O)(=O)N(C)C3CCCCC3)ccc21
    6	15	-12	4.1	9	2	4688
- Fc1cccc(F)c1CN1CCN(c2ccc(Cl)cc2)CC1
    42	2	-26	3.9	21	10	4006
- COc1ccc(C(c2nnnn2C2CCCC2)N2CCc3ccccc3C2)cc1OC (configuration not stated)
    -3	1	-2	0.2	.	.	4860
- CC(C)Oc1ccc(C2CC(=O)N(c3ccccc3)C2=O)cc1 (configuration not stated)
    1	-1	-10	-1.6	.	.	2110
- C=C[C@@]1(C)CCC(C(C)=CC=CC(C)(C)O)CC1C(=C)C (some centres not stated)
    -1	.	.	7.5	2	10	.
- Oc1cccc(C=Nc2cccc3ccccc23)c1O
    .	-15	-13	.	.	.	2664

# Grouped by structure: those above containing an aryl methoxy group
# Sequence of screens – Sa ugtP lethal	BJeLR lethal	PrP 5UTR inh	RN4220 kill	Mtb hypoxia rep	Mtb hypoxia rep growth	Bead autofluor
- COc1ccc(NC(=S)NCCc2c(C)[nH]c3ccc(OC)cc23)cc1
    1	0	-37	4.3	6	-1	2105
- COc1ccc(CNC(=O)c2ccc(N3CCCC3=O)cc2)cc1
    13	-10	-22	5.6	6	8	7836
- COc1ccc(C(c2nnnn2C2CCCC2)N2CCc3ccccc3C2)cc1OC (configuration not stated)
    -3	1	-2	0.2	.	.	4860

# Next part:
# Sequence of screens – Sa ugtP lethal	BJeLR lethal	PrP 5UTR inh	RN4220 kill	Mtb hypoxia rep	Mtb hypoxia rep growth	Bead autofluor
- Cc1ccc(NC(=O)c2ccccc2O)cc1
    -13	-2	-72	-11	16	3	2974
- COc1ccccc1C(=O)Cc1ccccc1
    -7	.	-32	8.2	10	10	3868
- CCCNc1nc2c(c(=O)[nH]c(=O)n2C)n1CCC(C)C
    4	0	-1	3.4	4	2	?
- O=c1[nH]c2ccccc2n1CCCN1CCN(C(c2ccccc2)c2ccccc2)CC1
    -7	-3	.	0.3	9	17	.
- Cc1ccc(C=NNC(=O)Cc2c(F)cccc2Cl)s1
    7	.	.	-0.9	13	12	.
- Fc1ccccc1CCNCc1ccccc1
    3	-1	-42	3.6	8	-8	2301
- CC(=O)c1ccc(Cc2cnc(N)s2)cc1
    3	.	14	2.2	.	.	3855
- O=C(O)C1CC=CCC1C(=O)Nc1ccccc1Cl (configuration not stated)
    -2	-1	-3	5.2	9	7	2622
- Cc1cc(OCC(=O)N2CCN(c3ccc(F)cc3)CC2)c2c(C)cc(=O)oc2c1
    2	0	-15	4.1	-1	0	5993
- O=C(Nc1ccccc1-c1ccccc1)c1cccs1
    4	7	-17	3.0	5	10	4875
- COc1ccccc1NC(=O)C1CCCN1C(=O)NCc1ccccc1 (configuration not stated)
    10	1	0	5.5	-3	-2	3177
- CCCCSc1nnc(-c2ccc(C)cc2)o1
    32	0	-24	16	21	17	10959
- CCOc1cc(/C=C/C(=O)OCC(=O)NC2CCS(=O)(=O)C2)ccc1OCc1ccccc1 (configuration not stated)
    84	.	-27	12	13	8	3343
- CC1CCCC(NC(=O)COC(=O)COc2cccc(F)c2)C1C (configuration not stated)
    6	.	-21	2.1	4	8	3431
- CCOC(=O)N1CCC(N(C(=O)Nc2ccc(CC)cc2)C(C)CC)CC1 (configuration not stated)
    3	-2	-20	4.2	5	16	7860

# Next entries follow.
# Sequence of screens – Sa ugtP lethal	BJeLR lethal	PrP 5UTR inh	RN4220 kill	Mtb hypoxia rep	Mtb hypoxia rep growth	Bead autofluor
- CNC(=O)Cn1c(C)cc(=O)c2cccc(OC)c21
    8	-3	.	2.4	-3	4	4809
- CCCCn1cnc2c(c(CC#N)nn2-c2ccccc2)c1=N
    3	.	-8	0.3	14	20	3974
- CCC(=O)Nc1ccc2c(c1)ncn2C
    -2	4	-2	3.9	7	-1	3302
- O=C(CCc1nc2ccccc2s1)N1CCN(S(=O)(=O)c2cccs2)CC1
    -2	5	-15	6.7	5	11	4232
- N#Cc1ccccc1NC(=S)NC(=O)c1cccs1
    -7	0	-20	2.4	2	1	5876
- O=C1C(Cc2ccccc2)Nc2ncnc(N3CCCCC3)c2N1Cc1ccc(Br)cc1 (configuration not stated)
    -5	.	9	4.1	-5	3	3035&5762
- CCOC(NC(=O)c1ccccc1)C(NC(=O)c1ccccc1)OCC (configuration not stated)
    -7	11	-18	6.4	3	17	10955
- Cc1c(NC(=S)NC(=O)c2sc3ccccc3c2Cl)cccc1C(=O)O
    -2	-2	-48	4.6	7	8	4052
- Cc1cc(C)n(-c2nc(NCC(C)O)c3c4c(sc3n2)COC(C)(C)C4)n1 (configuration not stated)
    2	10	.	4.8	7	4	12524
- Cc1ccccc1CCNC(=O)c1cc(C2CC2)nc2c1cnn2C(C)C
    -2	.	-17	-9.9	3	8	4256
- CCOc1cc(C(=O)Nc2ccccc2N2CCOCC2)ccc1OCC(=O)N1CCOCC1
    2	.	-40	0.3	1	1	7587
- COc1ccc(-c2nc(N)c(C#N)c(-c3cccnc3)c2C)cc1
    5	-1	-20	5.3	3	3	3939
- CCNC(=S)Nc1cccc(NC(=O)c2ccccc2O)c1
    -6	9	9	5.6	14	6	4526
- O=C(NCCC1CCCC1)C1CCC(=O)N(CCCN2CCCC2=O)C1 (configuration not stated)
    11	3	-13	5.6	-3	3	3057
- CCc1nnc(NS(=O)(=O)c2ccc(NC(=O)CCC(=O)O)cc2)s1
    2	2	-22	-1.3	-2	4	3298

# (listing goes on)
# Sequence of screens – Sa ugtP lethal	BJeLR lethal	PrP 5UTR inh	RN4220 kill	Mtb hypoxia rep	Mtb hypoxia rep growth	Bead autofluor
- COc1ccc(/C=N/NC(=O)c2cccnc2)cc1CSc1ccccn1
    .	-2	-18	.	.	.	4072
- CCOC(=O)c1c(C)nc(SCC(N)=O)c(C#N)c1-c1ccccc1
    -4	8	-12	6.1	8	0	10723
- COc1ccc2c(CC(=O)NCc3ccc4c(c3)OCO4)coc2c1
    -4	-10	-9	-5.4	-6	-5	7095
- C(=NN=C(NN=Cc1cccs1)NN=Cc1cccs1)c1cccs1
    3	.	-16	7.3	14	10	3082
- Clc1ccc2c(c1)c1cc(Cl)ccc1n2CN1CCOCC1
    84*	-5	-9	62	1	5	10815
- Cc1cc(C(=O)COc2nncc3ccccc23)c(C)n1C
    -7	3	-19	-1.8	-9	-3	3839
- Cc1ccc(NC(=S)NNC(=O)c2nn(C)c(C)c2Cl)cc1
    1	8	-66	6.7	5	8	4097
- COC(=O)C(N)Cc1ccc(Cl)cc1 (configuration not stated)
    -6	.	-6	7.4	7	-3	5941
- CCN(c1ccccc1)S(=O)(=O)c1nnc(NC(=O)CC(C)C)s1
    10	-2	-14	3.3	10	-2	2810
- O=C(ON=Cc1ccc2c(c1)OCO2)c1ccc([N+](=O)[O-])cc1
    4	.	.	9.4	-1	-3	.
- CCCCn1c(SCC(=O)NC2CCS(=O)(=O)C2)nnc1-c1ccc(OC)cc1 (configuration not stated)
    .	-6	-15	.	.	.	?
- COCC=CC1=CC2=CC(=O)C(C)(OC(=O)C3CCCC3)C(=O)C2=CO1 (configuration not stated)
    -2	.	.	9.8	15	4	.
- CN1C(=S)NC(C)(C)CC1(C)c1ccc(O)cc1O (configuration not stated)
    -2	-12	-21	-5.9	-4	-10	11286

# Part of the list above in order of molecular weight, lowest first:
# Sequence of screens – Sa ugtP lethal	BJeLR lethal	PrP 5UTR inh	RN4220 kill	Mtb hypoxia rep	Mtb hypoxia rep growth	Bead autofluor
- COC(=O)C(N)Cc1ccc(Cl)cc1 (configuration not stated)
    -6	.	-6	7.4	7	-3	5941
- Cc1ccc(NC(=O)c2ccccc2O)cc1
    -13	-2	-72	-11	16	3	2974
- CCCCSc1nnc(-c2ccc(C)cc2)o1
    32	0	-24	16	21	17	10959
- N#Cc1ccccc1NC(=S)NC(=O)c1cccs1
    -7	0	-20	2.4	2	1	5876
- CCCCn1cnc2c(c(CC#N)nn2-c2ccccc2)c1=N
    3	.	-8	0.3	14	20	3974
- CCCNC(=O)COC(=O)c1[nH]c(C)c(C(=O)OCC)c1C
    -4	-5	-20	-0.9	2	13	5695
- O=C(ON=Cc1ccc2c(c1)OCO2)c1ccc([N+](=O)[O-])cc1
    4	.	.	9.4	-1	-3	.
- COc1ccc(-c2nc(N)c(C#N)c(-c3cccnc3)c2C)cc1
    5	-1	-20	5.3	3	3	3939
- Cc1ccccc1NC(=O)CC1c2ccccc2CC(C)(C)N1C (configuration not stated)
    2	5	-43	5.3	3	5	4244
- Fc1cccc(F)c1CN1CCN(c2ccc(Cl)cc2)CC1
    42	2	-26	3.9	21	10	4006
- COc1ccc(CNC(=O)c2ccc(N3CCCC3=O)cc2)cc1
    13	-10	-22	5.6	6	8	7836
- COc1ccc2c(CC(=O)NCc3ccc4c(c3)OCO4)coc2c1
    -4	-10	-9	-5.4	-6	-5	7095
- COc1ccccc1NC(=O)C1CCCN1C(=O)NCc1ccccc1 (configuration not stated)
    10	1	0	5.5	-3	-2	3177
- O=C(NCCC1CCCC1)C1CCC(=O)N(CCCN2CCCC2=O)C1 (configuration not stated)
    11	3	-13	5.6	-3	3	3057
- COc1ccc(NC(=S)NCCc2c(C)[nH]c3ccc(OC)cc23)cc1
    1	0	-37	4.3	6	-1	2105
- CCOC(=O)N1CCC(N(C(=O)Nc2ccc(CC)cc2)C(C)CC)CC1 (configuration not stated)
    3	-2	-20	4.2	5	16	7860
- CCc1nnc(NS(=O)(=O)c2ccc(NC(=O)CCC(=O)O)cc2)s1
    2	2	-22	-1.3	-2	4	3298
- Cc1c(NC(=S)NC(=O)c2sc3ccccc3c2Cl)cccc1C(=O)O
    -2	-2	-48	4.6	7	8	4052
- O=C(CCc1nc2ccccc2s1)N1CCN(S(=O)(=O)c2cccs2)CC1
    -2	5	-15	6.7	5	11	4232
- CCOC(=O)c1cccc(NS(=O)(=O)c2c(C(=O)N3CCCCCC3)c(C)n(C)c2C)c1
    -3	-4	-18	-0.5	16	6	6033
- CCOc1cc(/C=C/C(=O)OCC(=O)NC2CCS(=O)(=O)C2)ccc1OCc1ccccc1 (configuration not stated)
    84	.	-27	12	13	8	3343
